# StopGo RLuc: lowers the Renilla signal of an FMDV 2A StopGo reporter; AID 1745857; actives 0.32% (n = 120,000); HEK cells with a luciferase reporter of 2A StopGo recoding; Potency, µM (doses to about 57.5 µM), for the others: top-dose signal change, negative = less light; active means well fitted falling curve with a large enough effect; inconclusive means small, poorly fitted or top-dose-only effect; inactive means no such curve, though single readings can be large or run the other way; note: nearly all actives have a fitted effect of over 55% in size; overnight with compound
# StopGo FLuc: FMDV 2A StopGo reporter, firefly signal | Potency, µM (series often up to 57.5 µM), without a hit: at the top dose signal change, negative = less light | AID 1745856 | HEK cells with a luciferase reporter of 2A StopGo recoding | actives 0.23% (n = 120,000); active = well fitted falling curve with a large enough effect; inconclusive = small, poorly fitted or top-dose-only effect; inactive = no such curve, though single readings can be large or run the other way; note: nearly all actives have a fitted effect of over 60% in size; overnight with compound
# * marks the source's active call; other numbers are inactive results; ? = inconclusive; & = joins results of further samples; [ ] = another dose, or the depositor's remark. % is set by controls: 0 for no effect and ±100 for the full control effect; potency is the fitted concentration of half-maximal effect. These rows are one share of the data, so the mix of outcomes need not match the whole.
Structure,StopGo RLuc,StopGo FLuc
Cc1cccc(Cn2c(C)c(CNC3CCCCC3)c(C(=O)O)c2C)c1,17%,-22%
O=C1CCCC2=C1C(c1ccc(F)cc1)C=C1c3cc4c(cc3CCN12)OCCCO4 (stereo not given),-2%,0%
CCC1(CC)C(=O)NC(=O)NC1=O,-8%,-14%
CCC1(OC(=O)c2ccccc2)CC(C)N(C)CC1C (stereo not given),-6%,1%
CCC(=O)C1=C(c2ccccc2)N(C(=O)CC)n2c(nnc2-c2ccccc2)S1,-10%,-19%
Cc1cccc(-c2noc(-c3ccc(Br)cc3)n2)c1,3%,195%[activator]
CCN(C(=O)C(=O)Nc1ccc2nc3n(c(=O)c2c1)CCCCC3)c1ccc(F)cc1,17%,-13%
Cc1nc(-c2ccccc2)sc1C(=O)NC1CCC(C(F)(F)F)CC1 (stereo not given),9%,77%[activator]
CCNC(=O)C1CCN(S(=O)(=O)c2c(C)nn(CC(=O)N3CCc4ccccc43)c2C)CC1,-2%,5%
COc1ccc(N2CCN(C(=O)CSc3nc(-c4ccc(C(C)C)cc4)no3)CC2)cc1,-1%,-16%
CC(=O)N1CCc2c(sc3c2c(=O)n(Cc2ccccc2)c(=O)n3Cc2ccc(Cl)cc2)C1,-11%,-27%
CCC(=O)Nc1cc2nn(-c3ccccc3)nc2cc1Cl,-8%,168%[activator]
COCCNc1ccc2cc(S(=O)(=O)N3CCCCC3)ccc2n1,216%[activator],-15%
CCN(c1ccccc1)S(=O)(=O)c1nnc(NC(=O)C2CCCCC2)s1,-8%,-10%
Clc1ccc(C2C=C(c3ccccc3)Nc3nnnn32)c(Cl)c1 (stereo not given),13%,33%[activator]
COc1ccccc1CC(=O)Nc1ccc2nc(Nc3cccc(C(F)(F)F)c3)cc(C)c2c1,?,?
Cc1ccn2c(Nc3ccc(C(C)C)cc3)c(-c3cccs3)nc2c1,-5%,63%[activator]
CCn1c(CN2CCCCC2)nc2cc(NC(=O)c3cccc([N+](=O)[O-])c3)ccc21,8%,23%
Cc1ccc(OCC(=O)Nc2ccc3nc(SCCOc4ccccc4)sc3c2)cc1,-21%,-5%
Cc1ccc(CNC(=O)C2CCCN(S(=O)(=O)c3ccc4c(c3)oc(=O)n4C)C2)cc1 (stereo not given),0%,-20%

# Following part:
Structure,StopGo RLuc,StopGo FLuc
COc1ccccc1CNC(=O)CCCn1c(=O)c2ccccc2n(CC(=O)Nc2ccc(C)cc2Cl)c1=O,2%,0%
COc1ccccc1N1CCN(c2ncc3c(n2)CCN(Cc2ccc(C)s2)C3)CC1,-11%,-14%
CCOc1ccc(-n2ccn3c(SCC(=O)c4ccc(OC)c(OC)c4)nnc3c2=O)cc1,-4%,3%
CS(=O)(=O)c1ccccc1C(=O)OCc1ccccc1F,185%[activator],56%[activator]
NC1CCCN(Cc2cccs2)C1 (stereo not given),-3%,0%
Cc1ccc(C(CC(=O)O)NC(=O)c2nn(C)c(=O)c3ccccc23)cc1 (stereo not given),2%,5%
COc1cccc(CNC(=O)Cn2c(=O)n3nc(-c4cccc(F)c4)nc3c3ccccc32)c1,-22%,-7%
O=C(Nc1ccc(Br)cc1)c1ccc(F)c(S(=O)(=O)N2CCCc3ccccc32)c1,?,?
CCCSc1ncc(Cl)c(C(=O)NCc2ccc(C)cc2)n1,-7%,22%
O=C(/C(=C\c1ccc(-c2ccccc2Cl)o1)c1nc2ccccc2o1)c1ccccc1,16%,0%
Cc1ccc(-c2cc(C(F)F)n3nc(C)c(Br)c3n2)cc1,-16%,-11%
Cc1ccc(NC(=O)CC(O)(c2nccn2C)C(F)(F)F)cc1F (stereo not given),81%[activator],87%[activator]
CC(C)(C)c1ccc2c(c1)OCCOCCOc1cc(C(C)(C)C)ccc1OCCOCCO2,18µM*,28µM*
CC(CN(C)C)OC(=O)c1ccc2c(c1)OCO2 (stereo not given),-9%,-1%
CCOC(=O)c1cc(C)n(CC2CCC(C(=O)Nc3ccccc3OC)CC2)c1C (stereo not given),-11%,-8%
CCCCc1nnc(NC(=O)CCc2c[nH]c3ccccc23)s1,-21%,-9%
Cc1ccc(S(=O)(=O)N2CCN(C(C)c3nc4ccccc4c(=O)[nH]3)CC2)cc1 (stereo not given),8%,10%
CNCc1cccs1,-5%,6%
COc1cccc(-c2cc(C(=O)O)c3cc(C)ccc3n2)c1,-23%,64%[activator]
COc1ccc2c(c1)CNC2CS(=O)(=O)NC1CCCC1 (stereo not given),134%[activator],-2%

# More compounds follow:
Structure,StopGo RLuc,StopGo FLuc
COc1cc(NC(=O)N[C@@H](CCSC)C(=O)O)cc(OC)c1,-15%,-3%
O=C(O)c1ccc2c(c1)ncn2-c1ccc(F)c(F)c1,1%,16%
CCCCN(CC)CCCNC(=O)c1cc2c(=O)[nH]c3ccccc3c2n1C,-15%,-16%
CCc1ccc(NC(=O)C2CCCN(c3nnc(C)c4c(C)n(-c5ccccc5)nc34)C2)cc1 (stereo not given),11%,-1%
CCOC(=O)C(NC(=O)C1Cc2ccccc2C(=O)O1)C(=O)OCC (stereo not given),20%,13%
COc1ccc(CCNC(=O)c2c(O)nc3c(C)cccn3c2=O)cc1,-5%,-6%
CCCn1nc(S(=O)(=O)N2CCCC2)c(C(=O)OCC)c1C,2%,0%
CN(CCCc1[nH]nc(N)c1C#N)c1nc(-c2ccncc2)nc2ccccc12,55%[activator],32%[activator]
CC(Oc1ccc2ccc(=O)oc2c1)C(=O)Nc1ccc(N2CCOCC2)cc1 (stereo not given),-9%,105%[activator]
Cc1ccnc(SCc2nc3cc(NC(=O)c4ccccc4Cl)ccc3n2C)n1,-2%,26%
CCc1cccc(C)c1NC(=O)C1CCN(c2nnc(C)c3c(C)n(-c4ccccc4)nc23)CC1,-20%,-24%
Cc1cc(C(=O)N2CCN(Cc3ccccc3)CC2)c2ccccc2n1,-14%,-12%
COc1ccccc1CNc1nc(-c2ccc(C#N)cc2)cs1,?,-19%
COc1ccc2[nH]c(C)c(CCNCc3cccc(F)c3)c2c1,36%[activator],4%
COc1ccc(C(=O)Nc2cc(NC(=O)c3ccco3)ccc2OC)cc1Cl,2%,0%
Oc1ccc(Sc2ccc(O)cc2)cc1,-3%,34%[activator]
CCCC(C(=O)OCCN(CC)CC)(c1ccccc1)c1ccccc1,-12%,-11%[11.5 µM]
Fc1cc(COc2ccc(-c3nnco3)cc2)c2ncccc2c1,11%,0%
Cc1cccc(-c2c3c(=O)n(C)c(=O)n(C)c3c3c(C)nc4ccccc4n23)c1,-13%,12%
COc1ccc(-c2nn3c(=O)cc(CN4CCN(C(=O)/C=C/c5ccccc5)CC4)nc3s2)cc1,9%,6%

# (continued)
Structure,StopGo RLuc,StopGo FLuc
O=C(NC1CCCC1)c1cc(Cl)cc(Cl)c1,10%,1%
Cc1ccc(Oc2ccc(S(=O)(=O)N3CCCC3)cn2)c(Br)c1,19%,1%
CCc1ccc(NCc2cc3ccc(OC)cc3n(CC(=O)Nc3ccccc3C)c2=O)cc1,-4%,1%
COc1ccc(-c2cc(-c3ccccc3)nc(SCC(=O)Nc3ccccc3C)c2C#N)cc1,-1%,-17%
CCOC(=O)C1CCCN(CCC(=O)Nc2ccc(OC)cc2OC)C1 (stereo not given),2%,-17%
CCn1nc(C)c(CCN(C)C(=O)Nc2ccc(C)c(Cl)c2)c1C,-4%,26%
CCOC(=O)C1CCCN(Cc2cn3c(-c4cccc(Br)c4)nnc3s2)C1 (stereo not given),-18%,-12%
CCOC(=O)c1cc2c(=O)n3ccccc3nc2n(CC(C)C)c1=NC(=O)c1cc2ccccc2o1,28%,-15%
COc1ccc(C2=C(Nc3ccc(Br)c(C)c3)c3ccccc3C2=O)cc1,-8%,105%[activator]
Cc1ccc(C(=O)Nc2cccc(C(=O)O)c2)cc1,2%,?
CCCCc1c(C)nc2ccc(C)cc2c1SCCC(=O)O,11%,15%
CCSc1nnc(SCc2cc(=O)oc3c(C)c(C)ccc23)s1,7%,0%
COc1ccc(NC(=O)Cn2cc(C#N)c3ccccc32)cc1OC,-7%,-5%
Cc1cccc(C(=O)Nc2cccc(C(=O)OCc3cc(=O)n4nc(C5CC5)sc4n3)c2)c1,-2%,43%[activator]
NCc1ccc(COCC(F)(F)F)cc1,-2%,-1%
CCCCSc1nc2c(c(=O)[nH]c(=O)n2C)n1CC(O)COc1ccc(Cl)cc1 (stereo not given),-4%,4%
CCCCc1cc(=O)oc2cc(OCC(=O)OCC)c(Cl)cc12,-7%,-3%
Cc1ccc(Cl)cc1NC(=O)CN(Cc1ccc(Cl)cc1)S(C)(=O)=O,0%,20%
CCc1ccccc1NS(=O)(=O)c1ccc2c(c1)CCCN2C(=O)C1CCC1,63%[activator],-16%
COc1ccc(NC2=C(c3ccccc3)C(=O)c3ccccc32)cc1Cl,4%,-1%

# Single records, from the list above. Order of values: StopGo RLuc	StopGo FLuc
# Record of Cc1ccnc(SCc2nc3cc(NC(=O)c4ccccc4Cl)ccc3n2C)n1 → -2%	26%
# Record of COc1ccc(C(=O)Nc2cc(NC(=O)c3ccco3)ccc2OC)cc1Cl → 2%	0%
# Record of CCCCc1c(C)nc2ccc(C)cc2c1SCCC(=O)O → 11%	15%

# Further entries follow:
Structure | StopGo RLuc | StopGo FLuc
COC(=O)C1OC(OC2C(OC3CC[C@@]4(C)C(CC[C@]5(C)C4C(=O)C=C4C6C[C@@](C)(C(=O)OC)CC[C@]6(C)CC[C@]45C)C3(C)C)OC(C(=O)OC)C(OC(C)=O)C2OC(C)=O)C(OC(C)=O)C(OC(C)=O)C1OC(C)=O (stereo not given in full) | 5% | -1%
CN(Cc1ccc(C(=O)NCC(F)(F)F)cc1)C(=O)c1ccccc1 | -6% | 5%
CCCNC(=O)CCc1ccc(C#N)cc1 | -9% | 2%
COc1ccc(Cn2ccnc2SCC(=O)Nc2ccc3c(c2)OCO3)cc1 | 38%[activator] | -4%
CCc1ccc2oc(=O)cc(CN3CCN(c4ccccc4F)CC3)c2c1 | 7% | -4%
S=c1sc2c(s1)SC1CC=CC1S2 (stereo not given) | -7% | 0%
OC(CC#CCN1CCCCCC1)(c1ccccc1)C1CCCC1 (stereo not given) | -10% | 11%
CC1=C(C(N)=O)C(c2cccc(F)c2)n2nc(SCc3ccccc3)nc2N1 (stereo not given) | -9%&-6% | -13%&-15%

# Exported with values under each structure: entries from further up.
# Order of results – StopGo RLuc	StopGo FLuc
> COc1ccc(Cn2ccnc2SCC(=O)Nc2ccc3c(c2)OCO3)cc1
  38%[activator]	-4%
> CCc1ccc2oc(=O)cc(CN3CCN(c4ccccc4F)CC3)c2c1
  7%	-4%
> S=c1sc2c(s1)SC1CC=CC1S2 (stereo not given)
  -7%	0%

# (more compounds)
Structure | StopGo RLuc | StopGo FLuc
CN(CCCCOc1ccc2ccccc2c1)CCCCOc1ccc2ccccc2c1 | -4% | 0%
COc1ccccc1NC(=O)CSc1nc(N2CCOCC2)c2c(c1C#N)CCCC2 | 3% | 3%
Cc1cccn2c(=O)cc(COc3ccc(NC(=O)COc4ccc(F)cc4)cc3)nc12 | -7% | -23%
Cc1ccc(CNc2oc(-c3ccc(COc4ccc(C)cc4)o3)nc2C#N)cc1 | ? | 19%
CCOC(=O)C1CCN(C(=O)c2ccc3c(=O)n4nc(Nc5ccccc5)sc4nc3c2)CC1 | -10% | -4%
COc1cccc(NC(=O)Cn2c(=O)n(CCc3cccc(C)c3)c(=O)c3ccccc32)c1 | -6% | 16%
O=C(NCc1ccc(F)cc1)C(=O)Nc1ccc2nc3n(c(=O)c2c1)CCCCC3 | -3% | -15%
Cc1ccc(-c2nc(CN3CCN(CC(=O)Nc4cccc(C)c4C)CC3)co2)cc1 | 4% | 20%

# Later entries:
Structure | StopGo RLuc | StopGo FLuc
CC(NC(=O)Cc1csc2nc(-c3ccc(F)cc3)cn12)c1cccs1 (stereo not given) | 3% | 6%
O=C(c1ccccc1)c1ccc2nc(N3CCN(c4ccc(F)cc4)CC3)c3nncn3c2c1 | -8% | -18%
O=C(/C=C/C=C/c1ccco1)c1ccc(N2CCOCC2)cc1 | 10% | -17%
CCc1ccc(C(=O)N2CCSCC2)s1 | 20% | 133%[activator]
O=S(=O)(CCN1CCN(c2ccccc2F)CC1)c1ccccc1 | -14% | 5%
CCOC(=O)c1c(C)oc2ncnc(Nc3ccc(OCC)cc3)c12 | -10% | -6%
COc1ccccc1OCC(=O)Nc1nc2c(s1)CC(C)CC2 (stereo not given) | 4% | 0%
COc1ccc(C2CC(=O)N(Cc3ccc(C)cc3)c3c2c(C)nn3-c2nc(C)cc(C)n2)c(OC)c1 (stereo not given) | 12% | -4%

# (continued)
Structure | StopGo RLuc | StopGo FLuc
CC1=CC(C)(C)N=C(Nc2nc(C)c3cc(C)cc(C)c3n2)N1 | 0% | 20%
Cc1oc(-c2ccccc2)nc1CC(=O)Nc1ccc(S(=O)(=O)NC(C)C)cc1 | 0% | -10%
CCCCN1CCN(c2nc3c(c(=O)[nH]c(=O)n3C)n2CCCc2ccccc2)CC1 | 20% | 0%
Cc1ccsc1CN(C)C(=O)CCl | -30% | -23%
COc1ccc(OC)c(C2=NS(=O)(=O)N(C)C(C(=O)Nc3ccc(F)cc3F)=C2)c1 | 24% | ?
COc1ccc(Nc2nnc(-c3ccc(C)c(S(=O)(=O)NCCO)c3)c3ccccc23)cc1C(N)=O | 4% | 1%
COc1ccc(S(=O)(=O)N(CC(=O)Nc2cc(Cl)ccc2C)Cc2ccccc2)cc1OC | -3% | -21%
CCC(=O)N1N=C(c2ccco2)CC1c1ccc2nccnc2c1 (stereo not given) | -14% | -11%
C=CCSc1nnc(NC(=O)c2cc(=O)c3ccc(Br)cc3o2)s1 | -14% | -9%
COc1ccc(/C(C)=N/OC(=O)c2ccc(OC(C)C)cc2)cc1OC | 7% | 15%
